HNF4A DNA FP = change in binding of human HNF4 alpha to DNA | activity change, % at 10 µM | HNF4a-FITC DNA binding, fluorescence polarization, 1 h | 0.3% of 360,000 active; in the data active means activity change above about 30%, passing the limit was not always enough;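 further: controls were the assay level and a saturating level of protein; the project sought stronger binding though the title names inhibitors; some compounds called inactive have numbers as strong as hits; positive values seem to mean higher polarization but the record does not say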
LANA-H2A inh = blocks KSHV LANA binding to histone H2A/H2B; inhibition, % (test concentration not listed); 0.6% of 320,000 active; Q9QR71; cell-free LANA-H2A/H2B peptide, fluorescence polarization; in the data active means inhibition mostly above about 10%, no sharp cut-off; inactive means mostly below about 6.7%;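 further: stock transfer was 7.5 nL into about 10 µL; 0% = median of vehicle wells and 100% = median of positive control wells; one replicate is shown; the record names a cut of 25% in any replicate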
Target sequence (Q9QR71 whole entry, looked up): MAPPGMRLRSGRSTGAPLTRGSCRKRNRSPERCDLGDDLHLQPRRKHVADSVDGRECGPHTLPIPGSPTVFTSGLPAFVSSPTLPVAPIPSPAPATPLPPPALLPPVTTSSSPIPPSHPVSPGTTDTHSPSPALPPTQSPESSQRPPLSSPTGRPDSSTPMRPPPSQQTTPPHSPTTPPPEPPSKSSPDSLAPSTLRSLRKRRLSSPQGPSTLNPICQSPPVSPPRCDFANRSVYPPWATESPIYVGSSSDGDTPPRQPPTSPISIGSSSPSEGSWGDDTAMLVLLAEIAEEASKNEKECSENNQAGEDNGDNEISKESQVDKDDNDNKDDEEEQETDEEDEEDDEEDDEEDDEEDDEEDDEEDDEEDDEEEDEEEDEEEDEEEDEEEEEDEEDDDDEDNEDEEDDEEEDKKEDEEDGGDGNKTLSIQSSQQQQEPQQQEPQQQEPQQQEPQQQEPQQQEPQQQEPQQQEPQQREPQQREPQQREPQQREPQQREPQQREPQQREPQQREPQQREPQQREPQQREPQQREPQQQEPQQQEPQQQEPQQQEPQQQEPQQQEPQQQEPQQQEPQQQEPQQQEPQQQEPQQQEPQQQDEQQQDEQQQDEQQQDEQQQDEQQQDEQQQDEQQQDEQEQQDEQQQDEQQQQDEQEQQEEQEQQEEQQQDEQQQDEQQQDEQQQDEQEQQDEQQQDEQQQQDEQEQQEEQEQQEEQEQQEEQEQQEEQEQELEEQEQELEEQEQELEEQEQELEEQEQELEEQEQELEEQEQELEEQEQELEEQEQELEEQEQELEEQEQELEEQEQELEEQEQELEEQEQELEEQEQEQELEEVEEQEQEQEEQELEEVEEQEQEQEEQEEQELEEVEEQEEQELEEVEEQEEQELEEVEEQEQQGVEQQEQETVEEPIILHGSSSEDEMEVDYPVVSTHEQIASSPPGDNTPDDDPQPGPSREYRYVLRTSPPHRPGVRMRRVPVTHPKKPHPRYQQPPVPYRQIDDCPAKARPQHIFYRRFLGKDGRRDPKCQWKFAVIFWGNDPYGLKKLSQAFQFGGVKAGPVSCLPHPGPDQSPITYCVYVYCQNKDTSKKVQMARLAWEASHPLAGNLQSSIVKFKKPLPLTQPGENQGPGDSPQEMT
RanGTP-Impb inh = disruptors of Ran-importin-beta complex formation – biochemical, FRET, CFP-Ran, YFP-importin-beta, homogeneous, primary screen | inhibition, % (test concentration not listed) | 1.1% of 300,000 active | cell-free CFP-Ran/YFP-importin-beta FRET ratio | AID 2216;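 active means most replicates above 15%; inconclusive means exactly half above 15%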;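 further: 0% = DMSO wells and 100% = Ran loaded with GDP instead of GTP; wells of about 40 µL received 100 nL stock; the first replicate is given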
Vif A3G = HIV-1 Vif–A3G interaction blockers – biochemical, TR-FRET, GST-Vif 1-94, biotin-A3G peptide, dose response retest, primary screen (AID 1117319); inhibition, %; hits with a dose series show IC50 in µM; 0.57% of 260,000 active; TR-FRET GST-Vif / biotin-A3G peptide binding; higher % means a stronger effect; test concentration not given here; strong numbers were not always called active;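 active means above the screen mean plus three standard deviations and confirmed in dose response; inconclusive means results disagree or hit not tested in dose response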;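 further: Vif residues 1-94 fused to GST binding biotinylated APOBEC3G peptide 110-148; 0% = full assay without inhibitor and 100% = GST in place of GST-Vif; retest series ran down from 100 µM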
Beta2AR agonist = human beta-2 adrenergic receptor agonism by FAP. Am2.2-beta2AR cells, FAP receptor internalization, flow cytometry; reference of the scale not given here. response, % (test concentration not listed). 0.43% of 340,000 active;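 active means response above a set limit, near 3 SD of response in nonfluorescent compounds, cut at about 42% in these data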;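 further: stock transfer was 100 nL into about 11 µL; a reference agonist was the positive control; negative values mostly stem from fluorescent compounds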
ALR H2O2 inh = human ALR oxidase inhibition via reduced H2O2. P55789. purified ALR, DTT oxidation, H2O2 HRP-luminol luminescence. inhibition, % (test concentration not listed). 3.8% of 290,000 active;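 active means mean and each replicate at 75% or more; inconclusive means only one of the two met; inactive means neither met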;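 further: stock transfer was 7.5 nL into about 7.5 µL; 0% = neutral wells and 100% = wells with inactivated enzyme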
Calb FLC = C. albicans growth modulation with fluconazole; C. albicans CaCi-2 (fluconazole-resistant clinical isolate) + fluconazole, Alamar Blue growth, 48 h; growth inhibition, % (concentration not given with the values); 0.57% of 300,000 active;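 active means most replicates above 75%; inconclusive means exactly half above 75%; inactive means most below 75%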;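 further: all wells also contain fluconazole at 8 µg/ml as a sub-toxic cotreatment; 0% = median of DMSO wells and 100% = median of geldanamycin control wells; wells of about 8 µL received 7.5 nL stock; the first replicate is given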
Numbers without * were called inactive; i = inactive; ? = inconclusive; . = no result given; & = joins results of further samples.

SMILES	HNF4A DNA FP	LANA-H2A inh	RanGTP-Impb inh	Vif A3G	Beta2AR agonist	ALR H2O2 inh	Calb FLC
CCN(CC)c1ccc(/C=N/NC(=O)Cc2nnc(NC(=O)Nc3ccccc3)s2)cc1	3.1	-1.2	0.5	.	28	-5	7
COC(=O)c1nc2ccc(N3CCOCC3)cc2c(C)c1C(=O)OC	-4.4	-0.5	.	-8%	3	-42	15
COc1ccc(NC(=O)CSc2ccccc2)c([N+](=O)[O-])c1	-5.3	0.7	6.3	4%	-5	-9	-10
Cc1nn(C)cc1S(=O)(=O)Nc1ccc2c(c1)OCCO2	4.8	1.1	0.1	2%	5	-4	0
Fc1cc2[nH]cnc2cc1Cl	-2.5	2.5	1.8	-7%	-4	-9	0
Cc1ccc(OCCNC(=O)/C=C/c2ccco2)cc1C	1.0	-7.1	0.3	6%	6	?	-1
COc1ccccc1OCCCCCNCCO	0.3	-2.7	-5.1	0%	7	-20	-20
Cc1csc(NC(=O)Cn2nc(C)c([N+](=O)[O-])c2C)n1	-0.5	-0.5	-2.0	-4%	-2	-1	13
OCCN(Cc1ccccc1)CC1CC=CCC1 (stereo not given)	5.5	0.9	-7.8	3%	-11	-1	6
O=C(Cc1cccc(NC(=O)C2CCCN(C(=O)c3ccccc3)C2)c1)Nc1ccc(C(=O)N2CCOCC2)cc1 (stereo not given)	0.6	.	.	-3%	-5	.	.
O=C(NCc1ccc(F)cc1)c1cc2n(n1)C(C(F)(F)F)CC(C1CC1)N2 (stereo not given)	2.1	-1.1	3.6	23%	-6	-9	14
C[C@H](CO)N1C[C@H](C)[C@@H](CN(C)Cc2ccc(-c3ccccc3)cc2)Oc2c(NS(=O)(=O)c3ccccc3)cccc2C1=O	-1.5	-4.9	.	.	5	-5	.
O=[N+]([O-])c1ccc(N/N=C/c2cccs2)nc1	2.3	0.2	-6.4	.	15	-12	-21
COc1cccc(-n2c(C)nc3cc(C(=O)O)ccc32)c1	-3.6	4.2	-5.7	-2%	0	-5	23
CCOc1ccc(C(=O)NCC(=O)OCC(=O)NC2CCCC2)cc1	5.9	2.8	1.9	0%	-1	-6	5
O=C(c1ccoc1)N1CCC2(CCCN(Cc3ccc(F)c(F)c3)C2)C1 (stereo not given)	-0.8	-17	1.4	.	0	-17	21
O=C(CCc1ccccc1)Nc1ccc(S(=O)(=O)N2CCOCC2)cc1	1.8	0.2	3.5	?	23	-20	6
CN(C(=O)c1cc(S(=O)(=O)N2CCOCC2)cs1)c1ccccc1	-5.4	-6.7	1.1	.	0	0	11
O=C(NC(NC(=S)Nc1cc(Cl)ccc1Cl)C(Cl)(Cl)Cl)c1ccco1 (stereo not given)	-1.8	-2.9	2.6	?	14	3	-19
O=C(c1ccco1)N(Cc1ccco1)c1ccc(O)cc1	1.5	-2.8	4.0	63%	-19	19	-3
Cc1ccc(C(=O)CN2CCC(NC(=O)C3CCCCC3)CC2)cc1	1.7	0.7	3.4	-7%	0	-2	3
Cc1ccc(-n2c(-c3cccs3)nc3nc4ccccc4nc32)cc1	.	2.4	0.8	-17%	.	-1	-4
O=C(c1ccccc1F)N1CCN(c2ccc([N+](=O)[O-])c3ncccc23)CC1	-0.6	.	1.1	4%	-7	.	1
Cc1nnc(SCC(=O)Nc2cc(S(=O)(=O)N3CCCC3)ccc2Cl)s1	1.7	1.5	?	-13%	-1	2	-3
O=C(NCCOc1ccccc1)c1ccc2c(c1)S(=O)(=O)c1cc(Cl)ccc1C2=O	0.0	-6.7	.	.	-8	-2	.
CC(C)OC(=O)Cn1cc(C#N)c2ccccc21	4.1	-3.1	-2.8	.	-6	4	2
COc1cccc(NC(=O)C2CCC(CNC(=O)[C@@H]3Cc4ccccc4CN3)CC2)c1 (stereo not given in full)	1.8	2.0	2.3	7%	1	-2	-5
Cc1cc(=O)[nH]c(N/N=C/c2cc(C)n(-c3ccccc3)c2C)n1	5.8	3.9	1.9	13%	7	17	-5
Cc1cc(C)nc(SC(C(=O)O)c2ccccc2)n1 (stereo not given)	1.9	1.9	2.8	5%	-1	-4	-4
CCOc1ccc2c(c1)C(=NNC(=O)c1ccncc1)c1cc(OCC)ccc1-2	1.1	5.4	-4.1	.	12	-5	3
COc1ccccc1/C=N/NC(=O)c1ccc2c(c1)OCO2	0.7	-0.9	0.4	.	-6	0	-3
COc1cccc(/C=C2\SC(=S)N(N3C(=O)CCCC3=O)C2=O)c1	0.7	2.7	7.5	.	0	7	14
Cc1nc(C)c(C(=O)OC(C)C(=O)Nc2ccc(F)cc2)s1 (stereo not given)	3.9	.	.	-4%	-2	.	.
COc1ccccc1-c1cc(-c2cc(Cl)ccc2O)n[nH]1	1.3	-4.6	1.5	17%	12	-5	-1
CCOC(=O)C[C@H]1c2ccccc2S(=O)(=O)N1Cc1ccc(Cl)cc1	-4.0	5.3	?	.	0	-10	1
Cc1ccc(NC(=O)c2oc3ccccc3c2COC(C)C)cc1S(=O)(=O)N1CCOCC1	-2.1	2.0	.	-1%	1	-12	.
CN(C)c1ccc(/C=N/N2CCN(Cc3ccccc3Cl)CC2)cc1	-1.4	-3.8	-1.5	.	1	.	0
Cc1cc(Cl)ccc1OCC(=O)Nc1ccc2oc(=O)ccc2c1	-0.2	0.8	0.7	.	-4	-9	0
CC1CCN(c2c(NCc3ccc(C(=O)N4CCN(C5CCCCC5)CC4)cc3)c(=O)c2=O)CC1	1.8	-2.2	2.1	.	-13	-19	1
CCCn1nnc2c(=O)oc3ccccc3c21	1.9	-4.0	2.1	4%	-1	-21	19
COc1ccc(N2CC(C(=O)Nc3ccc4c(c3)OCO4)CC2=O)cc1 (stereo not given)	0.6	0.6	3.2	-3%	5	-18	-4
CN(CCc1ccccn1)C(=O)CCNC(=O)Cn1cnc2ccccc2c1=O	0.9	-4.4	5.1	-3%	0	-11	0
CCCCN1C(=O)C(=O)N(CC(=O)Nc2cc(S(=O)(=O)N(C)C)ccc2C)C1=O	-2.9	2.9	?	5%	1	2	29
[O-]/C(=C(\C(=S)Nc1cccc2ccccc12)[n+]1cccc(CO)c1)c1ccc(Cl)s1	5.6	.	.	2%	14	.	.
CCCCn1c(NS(=O)(=O)c2ccccc2)c(S(=O)(=O)c2ccc(C)cc2)c2nc3ccccc3nc21	-0.5	5.0	51*	.	14	18	2
CN1C(=O)C(CC(=O)Nc2ccc(F)cc2)N(CCCc2ccccc2)C1=S (stereo not given)	0.1	-4.4	-0.4	18%	-6	-5	-6
CCN1CCN(c2ccc(S(=O)(=O)N3CCOCC3)cc2NC(=O)CCC(C)C)CC1	-1.3	1.3	-0.3	1%	-3	-1	-4
COc1ccc(C(OC(=O)c2ccco2)C(=O)NC2CCCCC2)cc1 (stereo not given)	1.6	2.5	-1.1	5%	0	.	-8
CCOc1ccc(CNC(=O)C(C)n2ccc3cc(S(=O)(=O)N4CCCC4)ccc32)cc1 (stereo not given)	2.3	0.7	3.0	.	0	-15	-9
O=C(Cn1nnc2ccccc2c1=O)N[C@@H](Cc1c[nH]c2ccccc12)C(=O)O	-2.0	-4.8	2.0	18%	-3	3	-9
CC1CCCN(c2ccc(C(=O)NCc3ccco3)cc2[N+](=O)[O-])C1 (stereo not given)	-0.2	-4.6	-4.8	1%	-8	2	43
O=C(COc1ccc2ccccc2c1Br)N1CCN(c2ccccn2)CC1	-1.3	-3.1	2.3	-16%	-20	-10	1
Clc1nc(N2CCOCC2)ncc1Br	-1.1	-1.7	5.2	-5%	-6	-27	0
CC1(c2nnc(-c3cccc(Cl)c3)o2)CC(c2ccc(F)cc2)=NO1 (stereo not given)	-0.2	4.3	-2.3	.	-4	-15	5
COc1cc(OC)cc(C(=O)N2CCN(c3ccccc3F)CC2)c1	-2.1	-2.9	?	-4%	-6	-27	-5
COc1ccc(CCNC(=O)c2cccc(S(=O)(=O)N3CCCC3)c2)cc1OC	-1.6	3.1	.	-1%	-4	.	.
Cc1ccccc1-n1c(SCC(=O)N(C)C2CCS(=O)(=O)C2)nc2ccccc2c1=O (stereo not given)	-3.0	-3.7	1.6	3%	0	-8	22
CCOc1ccc(CCNC(=O)C(C)N2C(=O)CC(C)(C)Sc3ccccc32)cc1 (stereo not given)	-4.7	-1.3	-2.7	2%	-14	0	-2
N/C(=N/O)c1nc(N2CCCC2)nc(N2CCCC2)n1	-0.1	.	.	8%	8	.	.
Cc1cccc(NC(=O)Nc2ccc3c(c2)CCC3)c1	3.5	2.3	-3.4	0%	-2	-9	-7
(continued)
SMILES	HNF4A DNA FP	LANA-H2A inh	RanGTP-Impb inh	Vif A3G	Beta2AR agonist	ALR H2O2 inh	Calb FLC
O=C(O)C1CCCCC1C(=O)Nc1cccc(Br)c1 (stereo not given)	-32	-3.8	.	.	1	.	.
CCOc1cc(C(=O)N(CC)CC(=O)Nc2ccc3c(c2)OCCO3)ccc1OC	1.9	i	.	-12%	4	-6	.
O=C(COC(=O)C12CC3CC(CC(C3)C1)C2)Nc1ccc([N+](=O)[O-])cc1Br	2.7	-3.0	-1.8	.	-7	-8	-21
COc1ccc(CC(=O)OCC(=O)Nc2ccc(N3CCOCC3)cc2)cc1	2.3	1.5	-3.0	?	7	-18	18
CCOc1cc(C2C(C#N)=C(N)OC3CCCC(=O)C32)ccc1OCCN1CCOCC1 (stereo not given)	-2.3	0.8	6.4	1%	0	10	3
N#Cc1nc(-c2ccc(OCc3ccccc3)cc2)oc1N1CCOCC1	1.4	-1.6	1.3	-2%	-9	0	5
COc1ccccc1N(C(C)=O)C1SC(=O)N(c2ccccc2)C1=O (stereo not given)	1.3	1.7	2.0	31%	4	9	3
Cc1noc(C)c1C(=O)N1CCCC(C(=O)c2cccc(C(F)(F)F)c2)C1 (stereo not given)	2.7	-0.3	-3.1	-7%	-2	-5	5
Cc1nn(-c2ccccc2)c(C)c1NC(=O)c1ccc(S(=O)(=O)N2CCCC2)cc1	-2.1	0.3	4.3	?	-6	-4	-9
Oc1ccc(Cn2ccnc2)c2cccnc12	1.8	-2.0	11	.	-1	5	13
CN1CCC(=NNc2ncnc3sc4c(c23)CCCC4)CC1	-3.4	-0.6	4.6	15%	-6	4	38
Cc1ccccc1NC(=O)NC1(C(=O)N2CCC(O)CC2)CCCCC1	4.7	0.3	4.1	.	4	-6	-1
CCOc1ccc2[nH]c(=O)c(CN(Cc3ccco3)Cc3nnnn3Cc3ccccc3)cc2c1	0.9	5.3	4.0	-8%&10%	-3	-31	13
CCCc1ccc(S(=O)(=O)NCC2CCCN2CC)cc1 (stereo not given)	-1.9	5.4	-0.5	-5%	-4	-4	-5
O=C(N/N=C/c1cccc2ccccc12)c1n[nH]c2c1CCCC2	0.6	14	1.2	-9%	-3	-15	0
Cc1ccc(S(=O)(=O)c2c(C)cc(C)nc2Cl)cc1	-0.2	-1.3	-2.2	4%	-7	-11	-7
COc1ccc(OC)c(NC(=O)CCS(=O)(=O)c2cc3c(cc2C)NC(=O)CO3)c1	1.0	2.4	-2.4	3%	13	-34	-4
COC(=O)c1ccc(N(CC(=O)NC2CCCC2)C(=O)CNC(=O)c2ccco2)cc1	2.0	5.6	-0.7	-2%	10	-12	-9
COC(=O)Cc1sc(-c2ccccn2)nc1-c1ccccc1	-0.4	6.8	-0.5	-7%	-9	1	-3

Screening data deposited in PubChem BioAssay by several laboratories.
